# GIV Gai3 FP: inhibitors of GIV GBA-motif binding to rat Galpha-i3; hit rate 0.42% among 210,000; percent of control (FP), % (test concentration not listed); Galpha-i3/FITC-GIV peptide fluorescence polarization, 90 min; hits give low values; scaled: aluminum fluoride 0%, vehicle 100%; AID 1224905;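 active means replicate mean at 85% of control or lower, very high polarization wells dropped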;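 further: wells of about 15 µL received 100 nL stock; the first replicate is given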
# Target sequence (P08753 whole entry, looked up): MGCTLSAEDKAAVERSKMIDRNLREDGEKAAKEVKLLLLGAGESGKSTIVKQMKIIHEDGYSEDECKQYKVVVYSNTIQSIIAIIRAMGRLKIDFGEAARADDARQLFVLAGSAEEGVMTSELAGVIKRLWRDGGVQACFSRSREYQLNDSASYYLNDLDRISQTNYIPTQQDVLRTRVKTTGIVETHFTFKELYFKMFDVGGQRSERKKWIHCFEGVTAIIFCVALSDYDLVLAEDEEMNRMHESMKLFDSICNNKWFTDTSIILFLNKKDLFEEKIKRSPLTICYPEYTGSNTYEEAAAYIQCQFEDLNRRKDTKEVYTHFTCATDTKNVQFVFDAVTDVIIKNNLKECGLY
# HCMV NEC inh: disrupts HCMV UL50-UL53 complex binding; HTRF UL50-UL53 interaction, normalized percent inhibition; inhibition, % (no concentration beside the values); hit rate 0.15% among 190,000;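 active means both replicates at 50% or more, plus weaker picks with an unusually low signal ratio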;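 further: stock transfer was 100 nL into about 20 µL; 0% = negative control wells and 100% = wells with untagged competitor protein; inactives centre near -12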
# Sa growth inh: inhibitors of Staphylococcus aureus growth at 42 °C; S. aureus RN4220 growth, OD600, 20 h; hits give low values; relative growth, % (concentration not given with the values); hit rate 0.53% among 170,000;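 active means growth at 42 °C up to 50% and 20 or more points under that at 30 °C, or under 10% at both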;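 further: 300 nL library stock went into each well; scaled to the means of positive and negative controls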
# Sa growth inh second temp: second read-out of Sa growth inh, no call of its own (marks repeat the call); relative growth, %; measured here: growth at 30 °C;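 optical density after 20 h as mean of two plates; 100% = untreated growth and lower means inhibition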
# Numbers without * were called inactive; / = not tested or not shown; & = joins results of further samples.
# Order of values: GIV Gai3 FP	HCMV NEC inh	Sa growth inh	Sa growth inh second temp
> O=c1c2oc3ccccc3c2n(Cc2ccccc2F)c(=O)n1Cc1ccccc1
→ 102	/	88	83
> COCCn1c(C)cc(O)c(C(c2ccc(C)cc2)N2CCCCC2)c1=O (stereo not drawn)
→ 99	/	75	88
> Cc1ccc(S(=O)(=O)N2CCCC2C(=O)NC2CCCCC2)cc1 (stereo not drawn)
→ /	6	102	92
> O=C(Nc1ccc(Cl)cc1)c1ccc2oc(=O)n(Cc3ccccc3)c2c1
→ 105	/	113	86
> COc1ccnc(Oc2cccc(C(F)(F)F)c2)c1C#N
→ 101	-14	/	/
> CCOc1ccnc2c1c(=O)n(CC(=O)N1CCc3ccccc31)c(=O)n2C
→ 105	-2	/	/
> CCc1nc2ccccc2n1CCCCOc1ccccc1C
→ 102	-15	86	65
> O=c1c(/C=N/N2CCOCC2)c(-c2ccccc2)[nH]n1-c1nc2ccccc2s1
→ 99	-19	136	82
> CCOC(=O)c1c(C)oc2cc(Br)c(O)cc12
→ 100	-18&-24	/	/
> COc1ccccc1NC(=O)c1c(C)nc2sc(C(N)=O)c(N)c2c1-c1ccc(C)s1
→ 101	-15	/	/
> CC1CC1C(=O)OCC(=O)Nc1ccccc1Oc1ccccc1 (stereo not drawn)
→ /	-9	93	90
> CCOC(=O)c1sc(=NC(=O)c2ccc(S(=O)(=O)N3CCCCC3)cc2)n(C)c1C
→ 101	-20	88	82
> CC(Sc1nncn1C)C(=O)Nc1ccc(C#N)cc1 (stereo not drawn)
→ /	-4	102	105
> COc1ccc(C2CC(=O)C3=C(C2)Nc2onc(C)c2C3c2ccc(O)c(O)c2)cc1OC (stereo not drawn)
→ 112	-5	/	/
> C=CCn1c(O)c2ccc(C(=O)N=C3N=c4ccccc4=N3)cc2c1O
→ /	-2	99	88

# The results go on:
# Order of values: GIV Gai3 FP	HCMV NEC inh	Sa growth inh	Sa growth inh second temp
> O/N=C/c1cc(Cl)cs1
→ 101	-20	129	86
> O=C(CSc1nnc2ccccn12)NCc1cccs1
→ /	-12	99	87
> Cc1cccc(C(=O)OCc2nc3ccccc3c(=O)[nH]2)c1C
→ /	12	93	102
> Cc1ccc(C(C)C)c(OCc2nc3ccccc3n2C(C)C)c1
→ 98	-11	/	/
> CCSc1nccn2nc(-c3cccc(Cl)c3)cc12
→ 106	24	/	/
> CCOc1ccc2oc(-c3ccccc3)c(C(=O)Nc3cc(OC)c(OC)cc3C(=O)OC)c2c1
→ 102	-4	/	/
> N#C/C=C/N1CCC(Cc2ccccc2)CC1
→ /	-3	83	89
> Cc1cccc(CNC(=O)CCn2c(=O)c3cccn3c3ccc(F)cc32)c1
→ 100	17	99	103
> CCN(C#N)c1nc(C)cc(OC)n1
→ 105	-12	97	101
> Nc1n[nH]c(CCc2ccccc2)n1
→ 101	3	97	79
> COc1ccc(C2CC(c3cc4ccccc4oc3=O)=Nc3ccccc3N2)cc1 (stereo not drawn)
→ /	-37	119	88
> COc1ccc(S(=O)(=O)N2CCN(Cc3nc4ccc(C)cc4o3)CC2)cc1
→ 102	/	97	93
> CCCCn1nnnc1CSc1nnc(-c2cc(OC)c(OC)c(OC)c2)n1-c1ccccc1F
→ /	-13	109	94
> Cc1cccc(CC(=O)Nc2c(C(=O)Nc3cccc(F)c3)oc3ccccc23)c1
→ 106	-23	99	70
> O=C1N(c2ccc3c(c2)OCO3)C(c2ccc(F)cc2)C1(F)F (stereo not drawn)
→ /	7	118	98

# (list continues)
# Order of values: GIV Gai3 FP	HCMV NEC inh	Sa growth inh	Sa growth inh second temp
> COc1ccc(CCn2c(=S)[nH]c3c(sc4ccccc43)c2=O)cc1OC
→ 101	/	95	82
> CCCCSc1nn2c(=O)c(C)nnc2s1
→ 101	-8	/	/
> O=C1N/C(=N\O)S/C1=C/c1cccnc1
→ 95	-78	108	98
> CCN(Cc1ccncc1)S(=O)(=O)c1ccc(Cl)cc1
→ 98	-23	110	76
> COC(=O)COc1ccc2oc(-c3ccc(OC)cc3)cc(=O)c2c1
→ 102	-3	97	95
> CCOC(=O)c1nc(N)c(=O)n(-c2ccc(Cl)cc2)n1
→ 104	/	90	84
> CC1CSC(N(C(=O)CN2CSCC2=O)c2ccc(Cl)cc2)=N1 (stereo not drawn)
→ /	-12	121	93
> N#Cc1c(=N)nc2oc3ccc(Cl)cc3c3c(C#N)c(N)[nH]c1c23
→ 105	-28	93	82
> CCC(C(=O)NCCCN1CCN(C)CC1)N1C(=O)CCCc2ccccc21 (stereo not drawn)
→ 107	0	/	/
> CCSc1nc2ccccc2n1CC(=O)Nc1cc(Cl)ccc1OC
→ /	-11	103	85
> O=C(NCC1CCCO1)c1c[nH]c2ccccc2c1=O (stereo not drawn)
→ 100	-25	85	81
> CCCCn1c(CCCNC(=O)c2ccco2)nc2ccccc21
→ 105	-12	93	72
> Cc1cc(C)cc(Nc2nc(C)nc3onc(C)c23)c1
→ 99	-28	/	/
> O=C(CN1C(=O)C2CCCCN2c2ccc(S(=O)(=O)N3CCCCC3)cc21)NC1CCCCC1 (stereo not drawn)
→ 102	-13	/	/
> COCCNC(=S)N1CCCN(c2nc3cc(C)ccc3cc2C#N)CC1
→ 105	-10	70	81

# The listing continues:
# Order of values: GIV Gai3 FP	HCMV NEC inh	Sa growth inh	Sa growth inh second temp
> CCCn1c(C(F)(F)F)nc2ccccc21
→ /	-7	104	97
> CN1C(=O)C(=Cc2cccn2-c2ccccc2)C(=O)N(C)C1=O
→ 93	-10	103	100
> COc1ccc(CNc2cc(C)cc(C)c2)cc1
→ /	4	77	98
> CCOc1ccc2nc(SCCC(=O)Nc3ccc(OC)cc3)sc2c1
→ 103	-23	/	/
> CCn1ccc(C(=O)Nc2ccccc2Cl)n1
→ 100	/	97	82
> COc1ccc(S(=O)(=O)NCCc2cn3ccsc3n2)cc1
→ 100	/	95	92
> O=C(Nc1cccc(Cl)c1Cl)c1cc(S(=O)(=O)N2CCCCC2)ccc1F
→ 104	/	110	97
> CCOC(=O)CSc1nnc(-c2ccc(N(C)C)cc2)o1
→ 100	-14	92	79
> N#CC(C#N)=Cc1cn(CC(=O)Nc2ccccc2)c2ccccc12
→ 113	-3	108	71
> CN(C(=O)COC(=O)c1cccs1)C1CCS(=O)(=O)C1 (stereo not drawn)
→ /	12	109	92
> COC(=O)c1cc2ccsc2n1CC(=O)Nc1cc(F)ccc1F
→ 99	-6	/	/
> CC12CCC(O)CC1=CCC1C2CCC2(C)/C(=N/N)CCC12 (stereo not drawn)
→ 104	-16	72	50
> COc1ccccc1NC(=O)c1ccccc1
→ 99	-7	95	86
> CC1CC(=O)N(CC(=O)N2CCCCC2)c2ccccc2S1 (stereo not drawn)
→ 109	-9	114	100
> CCc1ccc(-c2nc(C(N)=O)c3[nH]c(=O)n(-c4ccccc4)c3n2)cc1
→ 109	/	79	82

# Next part
# Order of values: GIV Gai3 FP	HCMV NEC inh	Sa growth inh	Sa growth inh second temp
> O=C(/C=C\c1ccco1)Nc1ccc(N2CCN(C(=O)c3ccccc3)CC2)cc1
→ 105	-48	100	93
> CCCC(O)c1nc2ccccc2n1CCCOc1c(C)cccc1C (stereo not drawn)
→ 106	-20	/	/
> CS(=O)(=O)/C(C#N)=C/c1cccn1S(=O)(=O)c1ccccc1
→ 103	-6	83	95
> CN(Cc1ccccc1)C(=O)Nc1noc2c1COc1ccccc1-2
→ 101	-10	82	69
> CN(C)c1ccc(C(CNS(=O)(=O)c2ccc(Cl)cc2)N2CCOCC2)cc1 (stereo not drawn)
→ 100	/	103	93
> Cc1oc(C)c2c(=O)ccc3c(c12)OC(N)=C(C#N)C3c1ccc(Br)cc1 (stereo not drawn)
→ 132	-18	102	77
> O=C(C1=C2Sc3ccccc3N2CC(C(=O)c2ccccc2)C1)c1ccccc1 (stereo not drawn)
→ 153	/	85	87
> N#Cc1c(N)n(-c2ccc(S(N)(=O)=O)cc2)c2nc3ccccc3nc12
→ /	6	116	82
> CCOCCOC(=O)C1=C(C)NC2=C(C(=O)CC(c3ccc(Cl)cc3)C2)C1c1cc(Cl)c(O)c(OC)c1 (stereo not drawn)
→ 99	-32	/	/
> CC1CCCCC1NC(=O)C1(C)Cn2c(cc3occc32)C(=O)N1C1CCCCC1 (stereo not drawn)
→ 99	-4	/	/
> COc1ccc(C2OC(COc3ccccc3C)=NN2C(C)=O)cc1OC(C)=O (stereo not drawn)
→ 101	1	103	104
> CCC1CCCCN1CCCNC(=O)c1sc2nc(C)cc(C)c2c1-n1cccc1 (stereo not drawn)
→ 97	-10	115	92
> Cc1ccc(C(=O)OCCSc2ccc(C(F)(F)F)cn2)cc1
→ 104	1	110	91
> COc1ccc(-c2noc(CNC(=O)NC3CCCCC3)n2)cc1
→ 100	-9	95	87
> CCOC(=O)C(C)Sc1ncnc2sc3c(c12)CCCC3 (stereo not drawn)
→ 106	-1	108	101

# (cont.)
# Order of values: GIV Gai3 FP	HCMV NEC inh	Sa growth inh	Sa growth inh second temp
> CSc1nc2n(n1)C(=O)CC(C)(C)N2
→ 103	/	99	102
> O=C(CSc1nc(=O)n(Cc2ccco2)c2c1CCC2)Nc1cccc(F)c1
→ 101	/	142	92
> COc1ccc(CN(C)C(=O)c2cc(C)on2)c(OC)c1
→ /	-26	95	79
> COCCNC(=O)CCc1c(C)nc2c(c(C)nn2-c2ccc(C)cc2)c1C
→ 102	-4	98	88
> O=C1CCCc2[nH]c(=O)c(C(=O)Nc3ccc(O)cc3)cc21
→ 104	-28	/	/
> c1coc(CNCC2CCCO2)c1 (stereo not drawn)
→ 107	8	104	106
> O=C(CC(c1ccc(F)cc1)c1ccco1)Nc1nccs1 (stereo not drawn)
→ 101	1	92	73
> O=C(O)c1cc(C2CC2)on1
→ 100	-8	103	84
> COc1ccccc1CC(=O)Nc1ccc2ccccc2n1
→ 102	-16	97	84
> Cc1nn(-c2ccccc2)c(C)c1P(=O)(c1ccccc1)N(C)C (stereo not drawn)
→ /	-22	122	90
> COC(=O)c1c(C)[nH]c(C(=O)C(C)OC(=O)c2cc(S(=O)(=O)N3CCOCC3)ccc2F)c1C (stereo not drawn)
→ /	-18	65	88
> CCn1c(=O)c2cc(C(=O)N(CCC(C)C)Cc3ccco3)sc2c2ccccc21
→ 102	-24	100	90
> CCOC(=O)c1ccc(NC(=O)c2ccc3c(c2)CCN3S(=O)(=O)c2ccc(Cl)cc2)cc1
→ 108	-8	107	85
> CCOC(=O)c1ccc(-n2c(=S)[nH]c3ccccc32)cc1
→ 101	-17	95	85
> Cc1sc2ncnc(Nc3ccc(F)cc3F)c2c1S(=O)(=O)N1CCCCC1
→ 105	1	/	/

# Full records, looked up by structure.
# O=C(CSc1nc(=O)n(Cc2ccco2)c2c1CCC2)Nc1cccc(F)c1 is listed as GIV Gai3 FP = 101; HCMV NEC inh = /; Sa growth inh = 142; Sa growth inh second temp = 92
# CCn1c(=O)c2cc(C(=O)N(CCC(C)C)Cc3ccco3)sc2c2ccccc21 is listed as GIV Gai3 FP = 102; HCMV NEC inh = -24; Sa growth inh = 100; Sa growth inh second temp = 90
# COc1ccccc1CC(=O)Nc1ccc2ccccc2n1 is listed as GIV Gai3 FP = 102; HCMV NEC inh = -16; Sa growth inh = 97; Sa growth inh second temp = 84

# (cont.)
# Order of values: GIV Gai3 FP	HCMV NEC inh	Sa growth inh	Sa growth inh second temp
> CCNC(=O)Nc1ccccc1C(=O)OC
→ 114	5	116	96
> O=C(CC12CC3CC(CC(C3)C1)C2)OCC(O)CN1CCOCC1 (stereo not drawn)
→ /	-13	97	88
> O=S(=O)(NCC(c1cccs1)S(=O)(=O)c1ccccc1)c1ccc(F)c(C(F)(F)F)c1 (stereo not drawn)
→ 101	/	126	78
> NNC(=O)CCN1CCN(Cc2ccccc2)CC1
→ /	-14	111	93
> Cc1ccc(NC(=O)CSc2nc3c(c(=O)[nH]2)CN(Cc2ccc4c(c2)OCO4)CC3)cc1C
→ 101	-25	107	86
> COc1ccc(CC(=O)Nc2ccc3c(c2)CCCN3S(=O)(=O)c2ccc(C)cc2)cc1
→ 103	4	/	/
> Cn1ccsc1=NC(=O)CCCc1c[nH]c2ccccc12
→ /	-26	101	78
> Cc1ccc(Nc2c(-c3ccc(C)cc3)nc3c(C)cccn23)cc1
→ 109	-13	88	78
> O=C(O)/C=C/c1cc(Br)ccc1OC(F)F
→ /	-45	101	94
> COc1ccc(S(=O)(=O)Nc2cccc(-c3nnco3)c2)cc1OC
→ 107	-13	103	94
> COc1ccc(C2Nc3ccccc3-c3cc(C)nn32)cc1 (stereo not drawn)
→ 100	/	98	82
> CCOC(=O)c1cc(C)n(CC2CCC(C(=O)NCc3ccc(OC)cc3)CC2)c1C (stereo not drawn)
→ 103	-3	/	/
> O=C(NC(NC1=NCCS1)(C(F)(F)F)C(F)(F)F)c1ccco1
→ /	-4	98	94
> N#C/C(=N\Nc1ccc(F)cc1)C(N)=S
→ 108	-61	0.0*	-0.2*
> Cc1ccc(S(=O)(=O)N2CCC(C(=O)N=Nc3c(O)[nH]c4ccccc34)CC2)cc1
→ 99	-72	113	71

# (further entries)
# Order of values: GIV Gai3 FP	HCMV NEC inh	Sa growth inh	Sa growth inh second temp
> COc1ccc(-c2noc(N3CCCC(C(=O)N4CCC(Cc5ccccc5)CC4)C3)n2)cc1 (stereo not drawn)
→ 106	-8	/	/
> COC(=O)c1ccccc1NC(=O)Cn1c(=O)n(-c2cccc(OC)c2)c(=O)c2c(C)c(C(=O)N(C)C)sc21
→ 98	/	119	100
> Cc1ccc(-c2cc(C(=O)Nc3cccc(C#N)c3)c3ccccc3n2)o1
→ /	8	93	96
> COc1ccc(OC)c(NS(=O)(=O)c2cc(F)ccc2CN2C(=O)c3cccnc3C2=O)c1
→ 103	-3	/	/

# High-throughput results deposited in PubChem BioAssay by ICCB-Longwood Screening Facility, Harvard Medical School.
